PINK1 modulator = changes PINK1 expression | PINK1 immunofluorescence, high-content cytometry, 24 h | Potency, µM (top dose mostly 76.6 µM), for inactives: at the highest dose activation (PINK1 increase), usual class: activators | 0.2% of 410,000 active | AID 624263; active = well fitted activation curve with a large enough effect; inconclusive = small, poorly fitted or top-dose-only effect; inactive = flat fitted curve, though single readings scatter; cell line not stated here;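 further: potency means the concentration at half of the fitted maximal effect; % of control where 0% means no effect; nearly all actives have a fitted effect of over 65% in size; a mitochondrial uncoupler was the plate control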
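Fluorescence from anti-PINK1 antibody, together with nuclear and cell stains, was scanned on a laser-scanning cytometer. Before staining, stable-line cells were incubated 24 hours with compounds at 5 concentrations; primary antibody 12 h at 10 degrees C.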
Six1-Eya2 inh = blocks human Six1 binding to Eya2; AID 651725; AlphaScreen GST-Six1/His-Eya2 binding, biochemical; active compounds read low; control for the full effect not named in the record; activity change, % (no concentration beside the values); Q15475+O00167; 0.56% of 360,000 active; in the data active = activity change below about -65%; inconclusive = about -30% to -65%; inactive = above about -30%; further: on the % scale 0 is the no-effect control and ±100 the full control effect
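Compounds are tested against tagged Six1 and Eya2 proteins bridged by glutathione donor and nickel acceptor beads; after a one-hour incubation at 37 °C without light, AlphaScreen emission is recorded.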
D2 potentiator = human D2 receptor positive allosteric modulation | P14416 | 0.23% of 360,000 active | potentiation, % (test concentration not listed) | DiscoveRx D2 beta-arrestin cells, luminescence, 90 min; 100% = 57 uM dopamine signal; active = potentiation of 50% or more; inconclusive = 30% to 50%; inactive = 30% or less;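 further: compound concentration not given in the record; tested on top of an EC20 dose of dopamine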
Target sequence (P14416 whole entry, looked up): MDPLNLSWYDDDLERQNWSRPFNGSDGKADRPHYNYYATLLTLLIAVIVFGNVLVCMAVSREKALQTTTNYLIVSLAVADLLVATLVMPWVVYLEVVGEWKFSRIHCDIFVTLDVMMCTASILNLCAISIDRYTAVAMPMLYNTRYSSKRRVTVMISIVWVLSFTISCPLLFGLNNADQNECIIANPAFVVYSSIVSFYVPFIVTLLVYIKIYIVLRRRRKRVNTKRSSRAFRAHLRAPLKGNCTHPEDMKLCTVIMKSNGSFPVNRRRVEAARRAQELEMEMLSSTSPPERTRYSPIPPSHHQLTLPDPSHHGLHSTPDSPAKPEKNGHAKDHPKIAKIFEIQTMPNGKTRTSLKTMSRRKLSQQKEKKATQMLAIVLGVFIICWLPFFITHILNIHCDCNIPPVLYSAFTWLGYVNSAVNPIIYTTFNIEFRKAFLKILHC
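PathHunter beta-arrestin assay in DiscoveRx D2 cells. Compounds were added with an EC20 of dopamine (50 nM final) for 90 min at 37 deg C. Luminescence was read 1 h after detection reagent, with 57 uM dopamine as the EC100 control.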
CtBP-E1A inh = blocks the CtBP interaction with E1A. AlphaScreen GST-E1A/His-CtBP binding, 1536-well; active compounds read low; control for the full effect not named in the record. activity change, % (test concentration not listed). 0.49% of 340,000 active. AID 651724; in the data active means activity change below about -65%; inconclusive means about -30% to -65%; inactive means above about -30%; further: on the % scale 0 is the no-effect control and ±100 the full control effect
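GST-E1A and His-tagged CtBP (125 nM each as 5X stock) were preincubated with pin-transferred compound for 2 h at 37 °C in the dark, then glutathione donor and nickel acceptor beads were added for 1 h before AlphaScreen reading.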
D2 ag = activates the human D2 dopamine receptor | P14416 | DiscoveRx PathHunter D2 beta-arrestin, luminescence, 90 min; 100% = 57 uM dopamine signal | activation, % (test concentration not listed) | 0.084% of 360,000 active | AID 624465; in the data active = activation above about 40%; inconclusive = about 15% to 40%; inactive = below about 15%; further: compound concentration not given in the record; the text of the record calls up to 30% inactive
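Agonist mode: compounds alone added to overnight-plated D2 PathHunter cells for 90 min at 37 C, with 57 uM final dopamine (EC100) defining full response. Beta-arrestin recruitment detected by chemiluminescent reagent, read after 1 h at ambient temperature.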
TRPML1 ag = human mucolipin-1 channel agonism; Q9GZU1; TRPML1-expressing cells, Ca2+ dye fluorescence, FDSS; host cell line not named in the record; reference of the full effect not given here; activation, % (test concentration not listed); 0.12% of 410,000 active; in the data active = activation above about 50%; inconclusive = about 30% to 50%; inactive = below about 30%; further: 0% is about no effect; the text of the record puts the active cut at 80%
Target sequence (Q9GZU1 whole entry, looked up): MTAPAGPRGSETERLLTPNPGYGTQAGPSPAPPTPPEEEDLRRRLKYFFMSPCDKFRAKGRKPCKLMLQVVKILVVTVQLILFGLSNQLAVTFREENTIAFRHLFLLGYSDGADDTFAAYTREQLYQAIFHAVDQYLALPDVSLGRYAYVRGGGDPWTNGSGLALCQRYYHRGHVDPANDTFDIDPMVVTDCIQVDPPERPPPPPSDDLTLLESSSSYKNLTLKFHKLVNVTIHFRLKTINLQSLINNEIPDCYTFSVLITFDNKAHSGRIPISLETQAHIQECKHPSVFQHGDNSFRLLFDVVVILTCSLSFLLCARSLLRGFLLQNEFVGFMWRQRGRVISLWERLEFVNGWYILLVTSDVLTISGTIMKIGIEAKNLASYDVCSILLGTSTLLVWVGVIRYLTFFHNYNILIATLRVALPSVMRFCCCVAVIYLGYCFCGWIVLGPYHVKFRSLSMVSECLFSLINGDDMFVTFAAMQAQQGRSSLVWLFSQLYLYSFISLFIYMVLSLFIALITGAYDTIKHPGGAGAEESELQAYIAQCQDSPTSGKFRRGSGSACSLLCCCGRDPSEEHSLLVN
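Calcium fluorescence on an FDSS kinetic reader gave the read-out. Tet-induced TRPML1-DL cells were plated overnight, dye-loaded (Ca8 with quencher, 45-90 min, room temperature, dark), then read 110 s after compound addition, and again 110 s after 4uM final 54-4 (EC80).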
* = called active by the depositor; ? = inconclusive; . = no result given; [ ] = another dose, or the depositor's remark. Not a hit list; any-hit rate near 1.3%.

Structure,PINK1 modulator,Six1-Eya2 inh,D2 potentiator,CtBP-E1A inh,D2 ag,TRPML1 ag
O=C(Nc1ncc(Cc2ccccc2)s1)C1COc2ccccc2O1 (configuration not stated),4.5%,-2,0,-6,0.4,3.9
CN1CCN(C(=O)c2ccc3c(c2)N(Cc2ccccc2F)C(=O)c2ccccc2S3=O)CC1 (configuration not stated),-0.3%,2,-13,1,-7.9,-0.3
CC(C)(C)Cc1c(-c2ccc(F)cc2)nc2ccc(Br)cn12,35µM*,17,-3,13,-11,0.4
c1ccc(CSc2nnc(SCc3ccccn3)s2)nc1,-1.0%[38.3 µM],1,-3,3,1.8,-0.3
CC12CCCC(CC(=O)O)(C1)NC(=O)C2 (configuration not stated),1.1%,-3,-8,-4,-3.6,0.1
CC(C)NC(=O)c1csc([C@@H]2O[C@H](CO)[C@H](O)[C@H](O)[C@H]2O)n1,2.3%,10,-6,-17,-4.9,-0.4
COc1ccc(Nc2nc(N3CCCCC3)nc3ccccc23)c(OC)c1,?,27,-40,34,-4.0,0.0
CCCCCOC(=O)C1[C@H]2C(=O)N(Cc3cccs3)C[C@]23C=C[C@H]1O3 (some centres not stated),?,2,-4,1,0.1,1.2
CCOc1ccc(/C=N/NC(=O)c2[nH]ncc2Br)c(O)c1,0.9%,-83*,-6,-92*,2.2,1.8
COc1ccc(-n2ncc3c(=O)n(Cc4c(F)cccc4Cl)cnc32)cc1,4.8%,7,-3,7,-1.9,1.3
CCc1nnc(NC(=O)c2ccc(C)o2)s1,0.1%,7,-29,9,1.5,0.0
O=C(c1ccccc1)c1n[nH]c(-c2ccccc2)cc1=O,2.8%,12,-8,-2,0.1,-0.8
CCc1ccc(C2=NN(C(C)=O)C(c3ccco3)C2)cc1 (configuration not stated),1.1%,-7,9,.,3.7,5.6
Cc1c(C(=O)Nc2ccc3c(c2)OCO3)sc2ncn(CC(=O)N3CC(C)CC(C)C3)c(=O)c12 (configuration not stated),5.2%[38.3 µM],-1,-10,-1,-2.4,4.1
CC(=O)c1cn(N2CCCCC2)c(=O)[nH]c1=O,1.6%,3,1,-17,-4.5,0.2
C=CCc1c(C)nc(C)nc1N/N=C/c1ccccc1O,1.4%,-81*,-54,-92*,-15,0.5
O=C(Nc1cccc(NC(=O)c2cccc(F)c2)n1)c1cccc(F)c1,3.6%,3,-1,0,-0.1,-0.2
COc1cccc(C2C(C(=O)OC(C)C)=C(C)Nc3ncnn32)c1 (configuration not stated),3.1%,-1,-13,-11,-1.0,0.6
CCc1noc(C)c1C(=O)Oc1ccc(N(C)S(=O)(=O)c2ccccc2)cc1,-1.1%,?,24,11,4.6,2.8
CC(=O)Nc1ccc(NC(=O)COC(=O)/C(=C/c2ccccc2)n2nnnc2C)cc1,-1.1%,14,-3,24,-5.4,0.4
CCCCCCCC(=O)NC(Nc1ccc(S(N)(=O)=O)cc1)C(Cl)(Cl)Cl (configuration not stated),0.0%,4,-8,7,-3.1,-0.2
COc1ccccc1C(=O)NCCCCNC(=O)c1ccccc1OC,4.1%,-1,-5,-1,-6.7,-0.5
CN(C)S(=O)(=O)c1ccc(NC(=O)N2CCN(c3ccccc3Cl)CC2)cc1,-2.9%,-3,-31,-8,1.5,2.0
Cc1cc(NC(=O)CN2CC(C)OC(C)C2)n(-c2nc3ccccc3s2)n1 (configuration not stated),1.9%,4,-13,7,-1.6,-0.9
COc1ccc(/C=C/c2nnc(NC(C)=O)s2)cc1,-0.1%,6,-6,3,-2.8,1.3
CCCn1nc(NC(=O)C(C)C)c2cc3cc(OC)ccc3nc21,-0.4%,-23,3,-18,5.2,1.6
Cn1c(C(C#N)C(=O)c2sc3ccccc3c2Cl)nc2ccccc21 (configuration not stated),-1.1%[38.3 µM],-29,2,0,0.2,4.2
COCCCN(C(=S)Nc1cc(Cl)cc(Cl)c1)C(C)c1ccccn1 (configuration not stated),4.7%,8,-15,.,-2.2,-0.9
Cc1cc(N2CCN(Cc3ccccc3)CC2)n2nc(C)c(-c3ccccc3)c2n1,3.6%[38.3 µM],3,-8,9,-3.3,-0.1
Cc1cnc(C(=O)Nc2nc(-c3ccccc3)cs2)cn1,3.8%,2,-16,0,-1.9,-0.5

Record cards, from the list above.
`Cc1cc(N2CCN(Cc3ccccc3)CC2)n2nc(C)c(-c3ccccc3)c2n1` reads PINK1 modulator: 3.6%[38.3 µM]; Six1-Eya2 inh: 3; D2 potentiator: -8; CtBP-E1A inh: 9; D2 ag: -3.3; TRPML1 ag: -0.1
`Cn1c(C(C#N)C(=O)c2sc3ccccc3c2Cl)nc2ccccc21` (configuration not stated) reads PINK1 modulator: -1.1%[38.3 µM]; Six1-Eya2 inh: -29; D2 potentiator: 2; CtBP-E1A inh: 0; D2 ag: 0.2; TRPML1 ag: 4.2

(further entries)
Structure,PINK1 modulator,Six1-Eya2 inh,D2 potentiator,CtBP-E1A inh,D2 ag,TRPML1 ag
CCCCCCNCC(=O)N1CCC(Cc2ccccc2)CC1,3.8%,0,-18,0,-5.8,1.3
O=C(Nc1ccccc1)C1=C(O)CC(c2ccc(Cl)cc2)N2CCN=C12 (configuration not stated),1.2%,-11,-14,-2,-3.4,0.2
Cc1cc(C(=O)Nc2cc(C)n(Cc3ccc(Cl)cc3)n2)no1,-4.3%[38.3 µM],1,3,2,1.1,1.0
COc1cccc(N2CC(C(=O)Nc3nnc(SCC(=O)N4CCCC4)s3)CC2=O)c1 (configuration not stated),1.4%,-13,13,1,-2.3,-0.4
Cc1cc2cc(CN(CC3CCCO3)C(=S)NCc3ccco3)c(=O)[nH]c2cc1C (configuration not stated),2.1%,-12,-12,10,-1.6,0.7
Cc1cc(NC(=O)C23CCC(C)(C(=O)O2)C3(C)C)no1 (configuration not stated),2.6%[38.3 µM],-5,-2,-4,-1.9,-0.6
CCCn1c(C)cc(-c2csc(NC(=O)CCc3nc4ccccc4c(=O)[nH]3)n2)c1C,5.7%,-9,30,-1,-3.2,-0.7
O=C(Cn1ncc2c([nH]c3ccccc32)c1=O)NCCc1ccccc1,-0.2%,3,-13,-18,-2.2,0.2
Cc1ccc(N(C(=O)c2ccc(S(=O)(=O)N(C)C)cc2)C2C=CS(=O)(=O)C2)cc1 (configuration not stated),-2.0%,7,-7,.,-4.4,0.4
NC(=O)Cn1c2[n+](c3ccccc31)CC(O)CS2 (configuration not stated),-0.1%,10,-5,2,-0.8,-0.8
COc1nnc(-c2ccc(C)c(S(=O)(=O)NCCO)c2)c2ccccc12,-1.0%,?,-9,?,-3.1,0.8
CCn1cc(C(=O)NCc2ccco2)c(=O)c2ccc(C)nc21,15%,1,-2,-7,-3.7,0.7
Fc1ccc(C2=CSC3=NCCN23)cc1,-1.4%,7,-7,3,-4.6,0.5
Cc1ccc(C)c(-n2c3nc(=O)[nH]c(=O)c-3cc3cc([N+](=O)[O-])ccc32)c1,-1.5%,-16,11,-19,5.8,14
COc1ccc(C(=O)OCCc2ccc(O)cc2)cc1,3.6%,9,-6,.,1.7,-0.3
O=C1OCCC1Sc1nnc(-c2ccccc2Br)n1Cc1ccccc1 (configuration not stated),6.9%,9,-9,6,1.9,-0.7
CCNc1ccc(S(=O)(=O)N(C)C)cc1NCC(=O)Nc1ccc(Br)cc1F,6.1%,-17,-36,-16,-1.9,-0.3
COc1ccc(Nc2oc(COc3ccccc3OC)nc2C#N)cc1,2.6%,-11,3,13,1.8,0.0
CC(=O)Nc1ccc(-c2ccnc3c2CC(C(=O)NCc2cccc(Cl)c2)O3)cc1 (configuration not stated),8.5%,-1,3,1,4.8,-0.8
COc1cc2c(cc1OC)C(COc1ccc([N+](=O)[O-])cc1)NCC2 (configuration not stated),-0.7%,-8,-8,-3,-2.9,-0.2

Sorted by value in D2 potentiator (highest first): some entries from above.
molecule,PINK1 modulator,Six1-Eya2 inh,D2 potentiator,CtBP-E1A inh,D2 ag
Cc1ccc(C)c(-n2c3nc(=O)[nH]c(=O)c-3cc3cc([N+](=O)[O-])ccc32)c1,-1.5%,-16,11,-19,5.8
CC(=O)Nc1ccc(-c2ccnc3c2CC(C(=O)NCc2cccc(Cl)c2)O3)cc1 (configuration not stated),8.5%,-1,3,1,4.8
Fc1ccc(C2=CSC3=NCCN23)cc1,-1.4%,7,-7,3,-4.6
COc1cc2c(cc1OC)C(COc1ccc([N+](=O)[O-])cc1)NCC2 (configuration not stated),-0.7%,-8,-8,-3,-2.9
O=C1OCCC1Sc1nnc(-c2ccccc2Br)n1Cc1ccccc1 (configuration not stated),6.9%,9,-9,6,1.9

(continued)
Structure,PINK1 modulator,Six1-Eya2 inh,D2 potentiator,CtBP-E1A inh,D2 ag,TRPML1 ag
CCCNc1nc(-c2ccccc2)c(C(=O)OCC)cc1C#N,6.1%,29,-15,30,-2.9,4.6
COC(=O)c1ccc(S(=O)(=O)N(CCO)Cc2ccccc2)n1C,0.2%,-3,-3,8,-0.9,11
O=C(N/N=C/c1c[nH]c2ccc(Br)cc12)C1CC1,-0.2%,-7,-13,.,0.6,-0.3
O=S1(=O)CC(O)C(NCc2ccco2)C1 (configuration not stated),-2.4%,3,-11,-1,0.2,0.0
CC(CCl)n1c(=O)c2ccccc2n1C(=O)c1ccccc1 (configuration not stated),-0.9%,9,.,-22,.,-0.9
C=CC1(C)CN(Cc2ccco2)S(=O)(=O)c2c(F)cccc2O1 (configuration not stated),2.1%,-1,0,-1,-1.4,-0.9
Cn1c(=O)c(-c2ccccc2[N+](=O)[O-])c(Cl)c2ccccc21,-1.4%,-13,-6,0,-0.2,0.7
COc1ccc(CNCc2ccc3c(c2)OCO3)c(OC)c1OC,-1.0%,4,-9,5,2.0,-1.2
CCN1C(=O)c2cccc3c(NC(=O)C4CCCCC4)ccc1c23,2.3%[38.3 µM],0,-14,16,-0.1,3.2
COc1ccccc1NC(=O)CN(Cc1ccccc1)S(C)(=O)=O,-0.7%,0,-11,-5,-0.4,-0.2
CCN(CC(=O)NC1CCS(=O)(=O)C1)C(C)C(=O)Nc1ccc(F)cc1 (configuration not stated),1.4%,3,-9,10,-1.0,-0.3
CCCCN(CCCC)CCNC(=O)CN1C(=O)COc2ccc(S(=O)(=O)N3CCC(C)CC3)cc21,-0.1%,-1,-2,13,-4.8,-1.1
CCOc1ccc(-n2c(C)nc3cc(C(=O)NCCCN4CCOCC4)ccc32)cc1,-1.4%,2,-16,0,-3.4,0.1
CC(C)c1ccc(OC(=O)c2cccc(S(=O)(=O)N3CCN(C)CC3)c2)cc1,4.1%,-15,-9,0,-4.2,0.3
CCn1c2ccccc2c2cc(NC(=O)c3ccccc3-c3ccccc3C(=O)O)ccc21,-0.4%,-10,-13,.,1.5,-0.7
COc1ccc(CNc2c(CO)cnc3c2cnn3C)cc1,0.3%,1,-1,1,-1.7,-0.1

High-throughput results deposited in PubChem BioAssay by National Center for Advancing Translational Sciences (NCATS).
